FPR binding = FPR binders displacing fluorescent formyl peptide, primary screen, U937-FPR cells, fMLFK-FITC, flow cytometry (AID 362); 4,300 tested, 1% active; fMet-Leu-Phe receptor (Homo sapiens); U937-FPR cells, fMLFK-FITC displacement, flow cytometry; stronger effect = higher value; test concentration not given here; most inactive calls were filed without a number and no value below 0 was filed; inhibition, %;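 active = inhibition of labelled peptide binding to the formyl peptide receptor of at least 65%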;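 note: plate controls were buffer control wells for no effect and unlabeled fMLFF blocking peptide for full effect; higher means less cell fluorescence so more probe displaced; part of the set was picked by virtual screening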
Starred values were filed as active, the others as inactive; i = inactive.

Start of the data: the first 2 records (preview)
item	Compound	FPR binding
1	OC(CC#CCN1CCCCCC1)(c1ccccc1)C1CCCC1 (stereo unspecified)	i
2	O=c1cccc2n1CC1CC2CN(c2nc(N3CCOCC3)nc(N3CCOCC3)n2)C1 (stereo unspecified)	i

The list itself, previewed entries included:
item	Compound	FPR binding
1	OC(CC#CCN1CCCCCC1)(c1ccccc1)C1CCCC1 (stereo unspecified)	i
2	O=c1cccc2n1CC1CC2CN(c2nc(N3CCOCC3)nc(N3CCOCC3)n2)C1 (stereo unspecified)	i
3	Cc1cc(OC(=O)c2cccs2)c2c3c(c(=O)oc2c1)CCCC3	10
4	O=c1cccc2n1CC1CC2CN(c2nc(N3CCCC3)nc(N3CCCC3)n2)C1 (stereo unspecified)	i
5	CCCCOC(=O)C1=C(N)OC(C)=C(C(=O)OC(C)C)C12C(=O)N(CC(=O)OC)c1ccccc12 (stereo unspecified)	4
6	CCCCOC(=O)C1=C(N)OC2=C(C(=O)CC(C)(C)C2)C12C(=O)Nc1ccc(Br)cc12 (stereo unspecified)	i
7	CC(C)Cn1cc(C(=O)N2CCC3(CC2)OCCO3)c2c3ccccc3n(C)c2c1=O	i
8	CCOC(=O)C1SC2(C(F)(F)C(F)F)CC1(O)c1c(c(OC)c3occc3c1OC)O2 (stereo unspecified)	4
9	Cc1cc(C)c(S(=O)(=O)NCC2CCC(C(=O)N3CCC4(CC3)OCCO4)CC2)c(C)c1 (stereo unspecified)	6
10	CC1(C)CC(=O)C2=C(C1)OC(N)=C(C(=O)OC(C)(C)C)C21C(=O)Nc2ccccc21 (stereo unspecified)	i
11	CCCCOC(=O)C1=C(N)OC2=C(C(=O)CC(C)(C)C2)C12C(=O)N(CC(=O)OC)c1ccccc12 (stereo unspecified)	i
12	Cc1nn(C)c(C(=O)Nc2ccc3c(C(F)(F)F)cc(=O)oc3c2)c1[N+](=O)[O-]	1

Three compounds out of the list, sorted by length of the SMILES, falling.
item	Compound	FPR binding
6	CCCCOC(=O)C1=C(N)OC2=C(C(=O)CC(C)(C)C2)C12C(=O)Nc1ccc(Br)cc12 (stereo unspecified)	i
7	CC(C)Cn1cc(C(=O)N2CCC3(CC2)OCCO3)c2c3ccccc3n(C)c2c1=O	i
4	O=c1cccc2n1CC1CC2CN(c2nc(N3CCCC3)nc(N3CCCC3)n2)C1 (stereo unspecified)	i

An excerpt; count on the stated rates, not on these rows.
